Vaccinia Venus: vaccinia inhibition (Venus reporter). Vaccinia virus Venus reporter expression, fluorescence. Potency, µM (titrated, usually from 36.5 µM), for inactives: at the top dose activity change, negative = inhibition, hits mostly inhibitors. hit rate 0.46% among 330,000; active means well fitted inhibition curve with a large enough effect; inconclusive means small, poorly fitted or top-dose-only effect; inactive means no such curve, though single readings can be large or run the other way; tested in A549 cells; further: nearly all actives have a fitted effect of over 30% in size; inactives centre near -10
VACV mCherry inh: inhibitors of vaccinia virus infection (mCherry reporter signal) | Potency, µM (titrated, usually from 36.5 µM), inactives show at the highest dose activity change, negative = inhibition, usual class: inhibitors | Vaccinia virus mCherry reporter infection, fluorescence; about a quarter of the inactives have no number | hit rate 0.63% among 310,000; active = well fitted inhibition curve with a large enough effect; inconclusive = small, poorly fitted or top-dose-only effect; inactive = no such curve, though single readings can be large or run the other way; tested in A549 cells; further: nearly all actives have a fitted effect of over 35% in size; inactives centre near -10
An asterisk follows results filed as active; & = joins results of further samples; [ ] = dose if it differs, or a comment. On the % scale 0 is the no-effect control and ±100 the full control effect; potency means the concentration at half of the fitted maximal effect.

For O=C(O)CCCn1ccc2cc(S(=O)(=O)N3CCCC3)ccc21 the results were Vaccinia Venus 2%[7.34 µM] and VACV mCherry inh -8%[7.34 µM].
`NC(=O)CC(NC(=O)Cc1cccc2ccccc12)c1ccc(NCCN2CCCC2)c([N+](=O)[O-])c1` (configuration not stated) gave Vaccinia Venus -11% and VACV mCherry inh -9%.
Screening O=C(CC1CCCC1)N1CCN(S(=O)(=O)c2cccc(F)c2)CC1 returned Vaccinia Venus -11% and VACV mCherry inh -13%.
Screening COc1ccc(Cn2c(=N)c(C(=O)NCC3CCCO3)cc3c(=O)n4ccccc4nc32)cc1 (configuration not stated) returned Vaccinia Venus -5% and VACV mCherry inh 5%.
Screening Cc1ccc(C2=CC(c3ccccc3)n3ncnc3N2)c(C)c1 (configuration not stated) returned Vaccinia Venus -18% and VACV mCherry inh -18%.
NC(=O)C[n+]1cccc(/C=N/O)c1 was read as Vaccinia Venus -2% and VACV mCherry inh 9%.
COC(=O)c1c(C(=O)c2ccc(Br)cc2)n(C)c2ccccc12 was read as Vaccinia Venus -15% and VACV mCherry inh -15%.
O=C(c1ccco1)N1CCN(CCOc2ccccc2)CC1 was read as Vaccinia Venus -12% and VACV mCherry inh -3%.
COc1ccc(C(=O)OCC(=O)N2CCc3ccccc32)cc1S(=O)(=O)N1CCOCC1 was read as Vaccinia Venus -6% and VACV mCherry inh -13%.
Screening COc1ccc(-c2ccc(SCC(=O)N3c4ccccc4CC3C)nn2)cc1OC (configuration not stated) returned Vaccinia Venus -17% and VACV mCherry inh -27%.
For CCCNC(=O)c1cc(C2CCCN(C(=O)c3ccccc3)C2)on1 (configuration not stated) the results were Vaccinia Venus 2% and VACV mCherry inh 28%.
For Cc1ccc(O)c(CNn2cnnc2)c1 the results were Vaccinia Venus -6% and VACV mCherry inh inactive.
`Cn1cc(Br)c(-c2cccc(NC(=O)CCCC(=O)O)c2)n1` gave Vaccinia Venus -1% and VACV mCherry inh 0%.
CCOC(=O)Cc1c(C)nc2c(C#N)c[nH]n2c1=O was read as Vaccinia Venus 2% and VACV mCherry inh -12%.
For Nc1cc(=O)[nH]c(=O)n1-c1ccc(Cl)cc1 the results were Vaccinia Venus -3% and VACV mCherry inh -9%.
Screening O=C1CCCc2c1cc(-c1ccccc1)n2-c1ccc(O)cc1 returned Vaccinia Venus -22% and VACV mCherry inh -5%.
COc1cc(/C=C2\CCC(C3CCCC3)C2=O)cc(OC)c1OC (configuration not stated) was read as Vaccinia Venus -13% and VACV mCherry inh -2%.
`COc1ccccc1C(NC(=O)C1CCN(CCOc2ccc(Cl)cc2Cl)CC1)c1ccccn1` (configuration not stated) gave Vaccinia Venus inconclusive and VACV mCherry inh inactive.
`Cc1ccc(C)c(S(=O)(=O)NCc2ccc(C(=O)N3CCCCCC3)cc2)c1` gave Vaccinia Venus -27% and VACV mCherry inh inconclusive.
Screening CCCCOC(=O)Nc1nccs1 returned Vaccinia Venus 2% and VACV mCherry inh inactive.
`NCCn1oc(=O)[nH]c1=O` gave Vaccinia Venus -13% and VACV mCherry inh -14%.
Cc1ccc(CCNc2nc3ccccc3c3nc(-c4ccccc4)nn23)cc1 was read as Vaccinia Venus 0% and VACV mCherry inh -12%.
Screening CCCCN(C(=O)c1cccc(-n2cnnn2)c1)c1c(N)n(CCCC)c(=O)[nH]c1=O returned Vaccinia Venus -13% and VACV mCherry inh 0%.
Screening Fc1ccc2cc(-c3ccccc3F)ncc2c1 returned Vaccinia Venus -5% and VACV mCherry inh inactive.
CN(c1ccc(Cl)cc1)S(=O)(=O)c1nnc(NC(=O)c2ccco2)s1 was read as Vaccinia Venus 3% and VACV mCherry inh -11%.
`CCOC(=O)c1c(NC(=O)COC(=O)CCOc2ccccc2C)sc(C(=O)NC)c1C` gave Vaccinia Venus -18% and VACV mCherry inh -18%.
Fc1ccc(CN2CCCCCCC2)cc1 was read as Vaccinia Venus -13% and VACV mCherry inh -13%.
`CCCSc1nnc(Cc2cc(=O)[nH]c(=O)[nH]2)n1-c1cc(C)ccc1C` gave Vaccinia Venus -11% and VACV mCherry inh -14%.
CCOc1ccc(CCNc2cc(C)nc3ncnn23)cc1OCC was read as Vaccinia Venus -6% and VACV mCherry inh -4%.
Screening Cc1c(C(=O)NCc2ccc(F)cc2)sc2nc3n(c(=O)c12)CCC3 returned Vaccinia Venus -9% and VACV mCherry inh -8%.
Screening CSc1ccccc1NC(=O)CN(C)C(=O)CNC(=O)c1ccc(Oc2ccccc2)cc1 returned Vaccinia Venus -27% and VACV mCherry inh inconclusive.
CC(=O)c1ccc(N2CCN(S(=O)(=O)c3ccc4c(c3)CC(C)N4C(C)=O)CC2)cc1 (configuration not stated) was read as Vaccinia Venus -23% and VACV mCherry inh -2%.
For COc1ccccc1-n1cnc2cc(NS(=O)(=O)c3ccccc3)ccc21 the results were Vaccinia Venus inconclusive and VACV mCherry inh -20%.
For Cc1cc(/C=N/O)c(C)n1-c1cccc(Cl)c1 the results were Vaccinia Venus 0% and VACV mCherry inh -16%.
Screening Cc1ccc(N2CC(NC(=O)C3CCCC3)CC2=O)cc1 (configuration not stated) returned Vaccinia Venus -4%[7.34 µM] and VACV mCherry inh -7%[7.34 µM].
Screening O=C1C=C(NCc2ccc(Cl)cc2)CCC1 returned Vaccinia Venus -1% and VACV mCherry inh -4%.
`CC(C)Oc1ccccc1C1NC(=O)CCC1[N+](=O)[O-]` (configuration not stated) gave Vaccinia Venus -3% and VACV mCherry inh -19%.
`CN(C)C(=O)COc1ccccc1C(=O)OCC(=O)Nc1ccc(Oc2ccc(Br)cc2)cc1` gave Vaccinia Venus -22% and VACV mCherry inh -12%.
For COc1cc(C(=O)NCCc2csc3nc(-c4ccccc4C)nn23)cc(OC)c1OC the results were Vaccinia Venus 6% and VACV mCherry inh 15%.
For CC(CCc1ccccc1)NC(=O)COC(=O)c1cccs1 (configuration not stated) the results were Vaccinia Venus -16% and VACV mCherry inh inactive.
For O=C(COc1cccc2c1CCNC2=O)Nc1ccc(F)cc1 the results were Vaccinia Venus -7% and VACV mCherry inh inactive.
For CCOC(=O)c1c(C)c(C(=O)N2CCN(C(=O)c3ccco3)CC2)c(C)n1C the results were Vaccinia Venus -11% and VACV mCherry inh inactive.
For COc1cccc(NC(=O)Nc2cccc(C(=O)O)c2)c1 the results were Vaccinia Venus 0% and VACV mCherry inh 2%.
`CCCCCCN1C[C@H](O)[C@@H](n2cc(COC(=O)c3ccccc3)nn2)C[C@@H]1c1ccccc1` gave Vaccinia Venus -5% and VACV mCherry inh inactive.
For CCN(CC)N=Nc1[nH]nc2nc(C)cc(C)c12 the results were Vaccinia Venus -15% and VACV mCherry inh inactive.
Screening Cc1[nH]c2ccccc2c1C(=O)CSC(=S)N1CCOCC1 returned Vaccinia Venus -28% and VACV mCherry inh -29%.
Cc1nc(=O)c(-c2ccccc2)c(C)n1-c1ccc(O)cc1 was read as Vaccinia Venus -8% and VACV mCherry inh -11%.
For Cc1ccc(F)c(S(=O)(=O)NC(=O)C2(C)CCN2C(=O)CC(c2ccccc2)c2ccccc2)c1 (configuration not stated) the results were Vaccinia Venus 3% and VACV mCherry inh 20%.
`O=C1C2CC=C(Cl)CC2C(=O)N1CCc1c[nH]c2ccccc12` (configuration not stated) gave Vaccinia Venus -16% and VACV mCherry inh -4%.
`CN(Cc1ccccc1)S(=O)(=O)c1ccc(Cl)nc1` gave Vaccinia Venus inconclusive.
`Cc1ccc(CN(C(=O)COc2ccccc2[N+](=O)[O-])c2ccccn2)cc1` gave Vaccinia Venus -7% and VACV mCherry inh -16%.
`CCN(C(=O)CSc1nnnn1C)c1c(N)n(Cc2ccccc2)c(=O)[nH]c1=O` gave Vaccinia Venus -2% and VACV mCherry inh inactive.
For Cn1ccnc1SCC(=O)c1c[nH]c2ccccc12 the results were Vaccinia Venus -9% and VACV mCherry inh inactive.
For CNc1c(NS(=O)(=O)c2cc(OC)ccc2OC)c(=O)oc2ccccc12 the results were Vaccinia Venus -7% and VACV mCherry inh -3%.
Screening COC(=O)c1nnn(CC(=O)NC(=O)Nc2ccc(F)cc2)c1C(=O)OC returned Vaccinia Venus 0%&-16% and VACV mCherry inh -3%&-3%.
Cc1ccc(N2CCCCn3c2nc2c3c(=O)n(CC(=O)O)c(=O)n2C)cc1 was read as Vaccinia Venus -12% and VACV mCherry inh -15%.
`CCOC(=O)[C@H]1[C@H]2COc3ccccc3[C@@H]2N2C(=O)c3cc(F)ccc3NC(=O)[C@@]12C` gave Vaccinia Venus -8% and VACV mCherry inh -8%.
O=C(OCCN1CCCC1)C1(c2ccccc2)CCCC1 was read as Vaccinia Venus -19% and VACV mCherry inh -5%.
Screening O=[N+]([O-])c1ccc(N=NNc2ccc([N+](=O)[O-])cc2)cc1 returned Vaccinia Venus -1% and VACV mCherry inh inactive.
For O=C1CCCc2c1oc1c2CCCC1 the results were Vaccinia Venus -2% and VACV mCherry inh -6%.
`c1cnc2nc(-c3ccc4c(c3)OCO4)cn2c1` gave Vaccinia Venus 1% and VACV mCherry inh -8%.
Screening Cc1ccc(CNS(=O)(=O)CCNC(=O)c2ccc3c(c2)OCO3)cc1 returned Vaccinia Venus -20% and VACV mCherry inh -7%.
Screening Cc1cccc(NC(=O)CCC(=O)OCC(=O)c2ccc(Oc3ccc([N+](=O)[O-])cc3)cc2)c1 returned Vaccinia Venus -11% and VACV mCherry inh -1%.
For CCOc1ccc(NC(=O)CN(C)C(=O)c2ccc(COc3ccccc3)cc2)cc1OCC the results were Vaccinia Venus -27% and VACV mCherry inh -3%.
COC(=O)c1ccc(Cn2nc(C)c(Cl)c2C)o1 was read as Vaccinia Venus 4% and VACV mCherry inh -8%.
For COc1ccc(C(CNC(=O)COc2cc(C)cc(C)c2)N2CCOCC2)cc1 (configuration not stated) the results were Vaccinia Venus -10% and VACV mCherry inh -18%.
O=C(CC1Sc2ccccc2NC1=O)NNc1cc(Cl)ccc1Cl (configuration not stated) was read as Vaccinia Venus 2% and VACV mCherry inh inconclusive.
Screening Cc1ccc(NC(=O)COC(=O)c2ccccc2OCC(=O)N(C)C)cc1 returned Vaccinia Venus -11% and VACV mCherry inh -4%.
`Cc1c(N=Cc2c(O)n(Cc3ccco3)c(=O)[nH]c2=O)c(=O)n(-c2ccccc2)n1C` gave Vaccinia Venus -11%.
Cn1ncc(N2CCN(C(=O)c3ccc(Cl)cc3)CC2)c(Cl)c1=O was read as Vaccinia Venus -9% and VACV mCherry inh -13%.
For CCN(C[C@H]1N[C@@](Cc2ccccc2)(C(=O)OC)[C@H]2C(=O)N(Cc3ccccc3)C(=O)[C@@H]12)C(C)=O the results were Vaccinia Venus -8% and VACV mCherry inh -1%.
For CC(=O)N(C1=NCCCS1)c1ccc(Cl)cc1 the results were Vaccinia Venus -9% and VACV mCherry inh inconclusive.
`O=C(Nc1cccc(F)c1)c1ccc(-c2ccccc2Cl)o1` gave Vaccinia Venus -9% and VACV mCherry inh -19%.
`COc1ccc(NC(=O)c2cc3c(=O)n4ccccc4nc3n2C)cc1OC` gave Vaccinia Venus -27% and VACV mCherry inh -14%.
For Cc1cccc(NC(=S)NCc2ccc(F)cc2)c1C the results were Vaccinia Venus -15% and VACV mCherry inh inactive.
Screening Cc1cc(NC(=O)CSc2cn(CC(=O)N(C(C)C)C(C)C)c3ccccc23)no1 returned Vaccinia Venus -4% and VACV mCherry inh -9%.
`O=C(Nc1cc(Cl)ccc1Cl)c1cc(-c2ccco2)on1` gave Vaccinia Venus 16% and VACV mCherry inh -7%.
`O=C(NCC1CCCN1S(=O)(=O)c1cccs1)C(=O)Nc1cccc(F)c1` (configuration not stated) gave Vaccinia Venus -17% and VACV mCherry inh -24%.
Screening O=C(Nc1ccc(Oc2cccc3ccccc23)cc1)c1ccco1 returned Vaccinia Venus -19%.
`Cc1ccccc1C(=O)N1CCc2cc(-c3csc(NC(=O)CN4CCCC4)n3)ccc21` gave Vaccinia Venus -13% and VACV mCherry inh inactive.
Screening COc1ccc(Nc2ccc(N3C(=O)CCCC3=O)cc2[N+](=O)[O-])c(OC)c1 returned Vaccinia Venus -13% and VACV mCherry inh -8%.
`CCc1cc(=O)oc2cc(OCC=C(C)C)ccc12` gave Vaccinia Venus -4% and VACV mCherry inh -11%.

Compounds listed so far that contain a thiophene ring, fused or not (four):
`CCOC(=O)c1c(NC(=O)COC(=O)CCOc2ccccc2C)sc(C(=O)NC)c1C` gave Vaccinia Venus -18% and VACV mCherry inh -18%.
Screening Cc1c(C(=O)NCc2ccc(F)cc2)sc2nc3n(c(=O)c12)CCC3 returned Vaccinia Venus -9% and VACV mCherry inh -8%.
For CC(CCc1ccccc1)NC(=O)COC(=O)c1cccs1 (configuration not stated) the results were Vaccinia Venus -16% and VACV mCherry inh inactive.
`O=C(NCC1CCCN1S(=O)(=O)c1cccs1)C(=O)Nc1cccc(F)c1` (configuration not stated) gave Vaccinia Venus -17% and VACV mCherry inh -24%.

At a glance, 3 of the compounds above.
`O=C(NCC1CCCN1S(=O)(=O)c1cccs1)C(=O)Nc1cccc(F)c1` (configuration not stated) gave Vaccinia Venus -17% and VACV mCherry inh -24%.
Screening O=C(Nc1ccc(Oc2cccc3ccccc23)cc1)c1ccco1 returned Vaccinia Venus -19%.
`Cc1ccccc1C(=O)N1CCc2cc(-c3csc(NC(=O)CN4CCCC4)n3)ccc21` gave Vaccinia Venus -13% and VACV mCherry inh inactive.
